# Compound activity: PubChem BioAssay, National Center for Advancing Translational Sciences (NCATS)
# HSD17B inh: blocks hydroxysteroid 17-beta dehydrogenase activity. Q99714. 75,000 tested, 7.6% active. recombinant HSD17B10, NADH fluorescence kinetic; many of its hits are not listed in these tables. Potency, µM (highest dose often 57.1 µM), for the others: at the highest dose activity change, negative = inhibition, actives largely listed as inhibitors; active means well fitted inhibition curve with a large enough effect; inconclusive means small, poorly fitted or top-dose-only effect; inactive means no such curve, though single readings can be large or run the other way;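 further: the protocol describes HADH2 (HSD17B10) and not the HSD17B4 of the title; nearly all actives have a fitted effect of over 70% in size; most hits overshoot -100% by far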
#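 Enzyme plus compound, 15 min room temperature; substrate mix added (NAD+ 1 mM, beta-hydroxybutyryl-CoA 90 uM final); plates read kinetically for NADH fluorescence. HADH2 was His-tagged, E. coli-derived, 20 nM.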
# Starred values were filed as active, the others as inactive; u = inconclusive; & = joins results of further samples; [ ] = another dose, or the depositor's remark. On the % scale 0 is the no-effect control and ±100 the full control effect; potency means the concentration at half of the fitted maximal effect. A portion of the library. The share of hits here may be higher or lower than overall.
structure,HSD17B inh
Cc1cn(CC2COC(C)(C)O2)c(=O)[nH]c1=O (centres undefined),2%
O=C(CN1CCCN(S(=O)(=O)c2ccc(F)cc2)CC1)Nc1ccccc1Br,-7%
CCN(CC)CCn1cnc2c([nH]c3cccc(OC)c32)c1=O,-6%
Cc1ccc(NS(=O)(=O)c2ccc(CCC(=O)N3CCOCC3)cc2)cc1,6%
Cc1cc(C)n(-c2nncc(-c3ccccc3)n2)n1,0%
O=S(=O)(c1cccc2cccnc12)n1cnc2ccccc21,5%
Fc1ccc(N2CCN(c3nc(-c4ccco4)cc(C(F)(F)F)n3)CC2)cc1,u
O=C(CSc1nnc(-c2ccccc2Br)o1)Nc1cccc2ccccc12,14%

# Four entries from above, with each value named.
> Cc1cn(CC2COC(C)(C)O2)c(=O)[nH]c1=O (centres undefined)
  HSD17B inh: 2%
> O=C(CN1CCCN(S(=O)(=O)c2ccc(F)cc2)CC1)Nc1ccccc1Br
  HSD17B inh: -7%
> CCN(CC)CCn1cnc2c([nH]c3cccc(OC)c32)c1=O
  HSD17B inh: -6%
> Cc1ccc(NS(=O)(=O)c2ccc(CCC(=O)N3CCOCC3)cc2)cc1
  HSD17B inh: 6%

# Further results
structure,HSD17B inh
CC(=O)NNC(=O)N1Cc2ccccc2Oc2ccc(Cl)cc21,0%
O=C1CCCN1CC(CN1CCOCC1)Sc1nc2ccccc2c(=O)n1-c1ccccc1 (centres undefined),1%
CCc1c(C)c2ccc(OCC(=O)OC)cc2oc1=O,32µM*
CN1CCc2c(sc3nc(SCC(=O)N4CCOCC4)nc(N)c23)C1,-30%
CN(C)C(=O)CSc1nnc(-c2cccnc2)n1-c1ccccc1,0%
O=C(Cc1ccccc1)Nc1c2c(nn1-c1cccc(Cl)c1)CS(=O)(=O)C2,3%
N#Cc1ccc(CN2CC3(CCN(C(=O)c4ccco4)CC3)C2)cc1,6%
c1ccc(-c2ccc(-c3ccc(C4=NCCN4)cc3)o2)cc1,3.2µM*

structure,HSD17B inh
O=S(=O)(c1cccc(-c2nnc(-c3ccc(Br)cc3)o2)c1)N1CCCCCC1,-20%
O=c1c(CCc2ccccc2)nc2cnc(N3CCNCC3)nc2n1Cc1ccc(F)cc1,25µM*
CN(C)c1nc(Nc2ccccc2)nc(Oc2ccc(=O)[nH]n2)n1,3%
CN(C)C(=O)Cn1c(SCC(=O)N2CCCc3ccccc32)nc2ccccc21,6%
CS(=O)(=O)c1ccc2nc(NC(=O)C3COc4ccccc4O3)sc2c1 (centres undefined),-28%
O=C1CN(C(=O)COC(=O)Cc2ccsc2)c2ccccc2N1,1%
Cc1ccsc1-c1nc(CSCC(=O)NCc2ccc3c(c2)OCO3)c(C)o1,u
COc1cc2ccccc2cc1C(=O)Nc1ccc(N2CCN(C)CC2)cc1,-2%

structure,HSD17B inh
O=C(NCCNC(=O)C1CC2CCC1C2)C1CC2CCC1C2 (centres undefined),-4%
CCOC(=O)C1=C(C)NC(=O)NC1c1cc(C)sc1C (centres undefined),1%
O=c1[nH]c(SCc2ccc(F)cc2)nc2c1cnn2-c1ccc(F)cc1,6%
Cc1nc(NC(=O)c2ccccc2)sc1-c1csc(NCc2ccco2)n1,-21%
Cc1ccc(-c2nnn(CC(=O)NCC3COCCO3)n2)o1 (centres undefined),9%
CCc1nnc(NC(=O)CSc2nnc(CSc3nc(C)cc(C)n3)n2CC)s1,-3%
CCCCCCN1C(=O)C(O)=C(C(C)=O)C1c1ccc(Cl)cc1 (centres undefined),1%
Cc1cc(C)c2ccc(C)[n+]([O-])c2c1O,-17%

structure,HSD17B inh
CCCn1c(NCc2ccc(C)o2)nc2ccccc21,9%
O=C(c1ccccc1)c1ccc(CN2C(=O)c3ccccc3C2=O)o1,0%
CCCn1cc(S(=O)(=O)CC(=O)N2CCc3ccccc32)c2ccccc21,-3%
CN(C)S(=O)(=O)c1ccc(C(=O)Oc2ccccc2)cc1,-15%
C=C(C)Cn1c(C2CC(=O)N(Cc3ccccc3)C2)nc2ccccc21 (centres undefined),8%
Nc1nc(Nc2ccccc2)nc2c1ncn2[C@@H]1O[C@@H](CO)[C@H](O)[C@@H]1O,-1%
CCc1c(C)sc(NC(=O)c2ccco2)c1C(=O)N1CCCCC1,-14%
O=C(CP(=O)(CO)CO)c1ccc(Cl)cc1,11%

structure,HSD17B inh
COC(=O)[C@H]1C[C@@H]1[C@H](NS(=O)(=O)c1ccccc1)c1ccccc1,-9%
CC1=C(C(=O)OC2CCCCC2)C(c2cccnc2)n2ncnc2N1 (centres undefined),13%
CC12COC3(C(=O)N4CCN(c5ccccn5)CC4)CC1CCC32C (centres undefined),-5%
Cc1sc2nc(SCC(=O)NCCOCCO)n(C)c(=O)c2c1C,-11%
COC(=O)CCCC[C@H]1SC[C@H]2NC(=O)N[C@]21O,2%
O=S(=O)(Nc1ccc2c(c1)OCO2)c1cccs1,-18%
CC(=O)C1=C(O)C(=O)N(CCc2c[nH]c3ccccc23)C1c1ccco1 (centres undefined),-26%
COc1ccccc1-c1nc(C#N)c(N2CCN(c3ccccc3)CC2)o1,u

structure,HSD17B inh
C/C(CCN1CCCCc2nc(C)c(C)cc21)=N\OC[C@@H](O)[C@@H]1O[C@@H]2OC(C)(C)O[C@@H]2[C@H]1O,1%[11.4 µM]
C=CCn1c(SCC(=O)N2CCN(c3ccc(F)cc3)CC2)nnc1-c1ccco1,0%
CCc1cc2c(NCCC(=O)O)nc(C)nc2s1,u
CCOC(=O)C1CCCN(C(=O)Cn2cnc3c2c(=O)n(C)c(=O)n3C)C1 (centres undefined),0%
O=C(O)C1(NS(=O)(=O)c2ccc(F)c(Cl)c2)CCCCC1,-8%
CN1CCN(C(=O)c2ccccc2NC(=O)Cc2ccccc2)CC1,5%
CN1C(=O)NC(c2ccccc2)C2=C1CN(Cc1ccco1)C2=O (centres undefined),-5%
COC(=O)c1ccc(CSc2ncnc3c2oc2ccccc23)o1,-6%

structure | HSD17B inh
O=C(NCc1ccco1)c1cc(-c2ccccc2)c(N2CCOCC2)s1 | -29%
CC(=O)/C=C\C1[C@]2(C)CCCC(C)(C)C2CC[C@@]1(C)O (some centres undefined) | 3%
Cc1c(N=Cc2ccco2)c(=O)n(-c2ccccc2)n1C | -15%
Cc1cc(C(=O)CC#N)c(C)n1-c1ccc(OC(F)F)cc1 | 1%
COc1cccc(NS(=O)(=O)c2nc3nc(C)cc(C)n3n2)c1 | 12%
COC(=O)CCC(=O)c1oc2ccc(Br)cc2c1N | 20µM*
O=C1c2ccccc2C(=O)C12Cc1ccccc1N1CCN(c3ccccc3)CC12 (centres undefined) | 4%
c1ccc2cc3[nH]c(CN4CCOCC4)nc3cc2c1 | u

structure | HSD17B inh
CCC(=O)N1CCc2cc(S(=O)(=O)Nc3ccc4c(c3)OCCO4)ccc21 | 0%
COc1ccccc1NC(=O)CNS(=O)(=O)c1ccccc1 | 6%
Cc1ccc(C(C)n2cc(C(=O)NCc3cccnc3)nn2)cc1 (centres undefined) | -2%
Cc1cc(C)nc(N(C#N)CC(=O)N2CCC(C(N)=O)CC2)n1 | 7%
Cc1ccc(OC(C)c2nnc(N)s2)cc1Cl (centres undefined) | -16%
Clc1ccc(Cc2noc(CN3CCN(c4ccccc4)CC3)n2)c(Cl)c1 | -10%
CSc1nc(N)c2ncn([C@H]3O[C@H](COP(=O)(O)OP(=O)(O)O)[C@@H](O)[C@@H]3O)c2n1 | -19%
COc1ccc(CCC(=O)N2CC(C)OC(C)C2)cc1 (centres undefined) | -6%

structure | HSD17B inh
Cc1ccc(S(=O)(=O)OC2CCN(C)CC2)cc1 | 3%[11.4 µM]
C/C(=N/Nc1ccc2ccccc2n1)c1ccccc1O | -1%[11.4 µM]
NCCCSC1=NCCCN1 | -5%
CSc1ncnc2c1ncn2C1OC(CO)C(O)C1O (centres undefined) | -2%
NCCCCCc1nnc(SCc2ccccc2Cl)o1 | 1%
O=C(CSc1ncnc2c1cnn2-c1ccccc1Cl)N1CCN(C(=O)c2ccco2)CC1 | -2%
CCN1CCN(Cc2cc(=O)oc3cc(C)cc(C)c23)CC1 | 5%
N#Cc1cnn(Cc2ccccc2)c1N | 10%

structure | HSD17B inh
O=C(Cn1ncc2c(=O)oc3ccccc3c21)N1CCN(c2ccccn2)CC1 | u
CN(C)C(=O)N1CCC(C(=O)NCc2ccc(F)cc2Cl)CC1 | 12%
COCCNC(=O)c1c(N)sc2c1CCCC2 | u
COc1ccc(S(=O)(=O)Cc2ccccc2)cc1N | 10%
O=C(N/N=C/c1ccccc1O)c1cc(-c2ccccc2)n[nH]1 | -10%
CCOC(=O)c1cnc2c(-c3ccccc3)c(C)nn2c1N | -16%
Cn1c(=O)[nH]c(=O)c2[nH]cnc21 | 5%
COc1ccc(-n2c(C)cc(C(=O)Cn3c(NCCO)nc4ccccc43)c2C)cc1 | -2%

structure | HSD17B inh
Cc1cccc(OCC2=N/C(=C\N(C)C)C(=O)O2)c1 | -12%
Cc1cc(Cl)ccc1OCC(=O)OC(C)C(=O)NC(N)=O (centres undefined) | -1%
Cc1cc(SCC(=O)Nc2c(C)n(C)n(-c3ccccc3)c2=O)n2c(nc3ccccc32)c1C#N | -10%
COCCn1c(=O)[nH]c2cc(C(=O)NCCCN3CCN(c4ccc(F)cc4)CC3)ccc2c1=O | 32µM*
COc1ccc(OC2C(O)COC2/C=C/C#Cc2ccc(F)cc2F)cc1 (centres undefined) | 0%&-4%[11.4 µM]
CS(=O)(=O)N(CC(=O)N1CCCCCC1)c1cccc(Br)c1 | -2%
CCC(=O)[C@@]1(C)[C@H](C)C[C@@H]2[C@@H]3CCC4=CC(=O)C=C[C@@]4(C)[C@H]3[C@H](O)C[C@]21C | -1%[25.6 µM]
CCOc1ccc(-n2c(SCC(=O)Nc3nccs3)nc3c(c2=O)SCC3)cc1 | 5%

structure | HSD17B inh
CCOCCCNC(=O)C(C)NS(=O)(=O)c1ccc(C)cc1 (centres undefined) | 0%
CC(=O)c1c(COC(=O)c2cccnc2)nc2ccccc2[n+]1[O-] | 1%
C=CCSC1=C(C#N)C2(CCCCC2)C(C#N)C(=O)N1 (centres undefined) | -9%
CC(=O)c1cc(F)c(N2CCCC2)cc1C | -14%
CCc1nnc(NC(=O)CSc2nnc(Cc3ccccc3)o2)s1 | 0%
CCc1nnc(NC(=O)CCC(=O)O)s1 | 11%
S=C(Nc1ccccc1)Nc1nccs1 | -14%
O=C(O)C1C2CCC(C2)C1C(=O)NCc1ccco1 (centres undefined) | 0%

structure | HSD17B inh
O=C(CCC(=O)N(Cc1ccco1)C(C(=O)NC1CCCC1)c1ccncc1)Nc1cccnc1 (centres undefined) | 0%
CN1CCN(c2cc(-c3ccccc3C(F)(F)F)ncn2)CC1 | -9%
Cc1cccc(Nc2nc(NC(C)C)nc(Oc3ccc(=O)n(C)n3)n2)c1 | 6%
O=C(Cn1cnc2c(nnn2Cc2ccccc2)c1=O)NCc1ccco1 | -11%
CS(=O)(=O)Nc1nnc(Cc2ccccc2)s1 | -2%
COc1ncnc2c1oc1nc(C(C)C)c3c(c12)CC(C)(C)OC3 | 6%
Cc1nc2c(cnn2-c2ccc(Cl)cc2)c(=O)n1-c1ccc2c(c1)OCCO2 | 6%
CC(C)(C)c1ccc(OC2C=CC(C#Cc3ccccc3)OC2CO)cc1 (centres undefined) | -7%[11.4 µM]

# Fetched one by one from the entries so far:
structure | HSD17B inh
Cc1nc2c(cnn2-c2ccc(Cl)cc2)c(=O)n1-c1ccc2c(c1)OCCO2 | 6%
CS(=O)(=O)Nc1nnc(Cc2ccccc2)s1 | -2%
O=C(CCC(=O)N(Cc1ccco1)C(C(=O)NC1CCCC1)c1ccncc1)Nc1cccnc1 (centres undefined) | 0%
CC(C)(C)c1ccc(OC2C=CC(C#Cc3ccccc3)OC2CO)cc1 (centres undefined) | -7%[11.4 µM]
COc1ncnc2c1oc1nc(C(C)C)c3c(c12)CC(C)(C)OC3 | 6%
Cc1cccc(Nc2nc(NC(C)C)nc(Oc3ccc(=O)n(C)n3)n2)c1 | 6%
CN1CCN(c2cc(-c3ccccc3C(F)(F)F)ncn2)CC1 | -9%

# Going on with the list.
structure | HSD17B inh
OC(CN1CCC(Cc2ccc(F)cc2)CC1)c1ccc(Cl)cc1 (centres undefined) | 8%&1%
CC(C)(C)n1nnnc1C(c1cccs1)N1CCN(Cc2ccccc2)CC1 (centres undefined) | 8%
COC(=O)[C@@]1(Cc2ccccc2)[C@H]2c3cc(C(=O)N(C)C)n(CCF)c3C[C@H]2CN1C(=O)c1ccccc1 | 5%
COc1ccc(CN2CCN(c3ccccn3)CC2)cc1OCc1ccccc1 | 4%
COc1ccccc1CNc1ncncc1-c1ccccc1Cl | 4%
O=C(c1ccc2c(c1)OCCO2)N1CCCCC1 | 2%
Nc1nonc1-c1noc(-c2ccc(Br)o2)n1 | 18%
COc1cc(C2Nc3cccc4cccc(c34)N2)cc(OC)c1O | 13µM*

structure | HSD17B inh
Cc1nn(-c2ccccc2)c(Cl)c1C1C(C#N)=C(N)Oc2n[nH]c(C)c21 (centres undefined) | -2%
COC(=O)CNC(=O)C(Cc1c[nH]c2ccccc12)NC(=O)OC(C)(C)C (centres undefined) | -2%
CC(=O)NC(NC(C)=O)c1ccc(N(C)C)cc1 | -8%
Cc1c(C(=O)OCCN2CCCCC2)oc2ccccc12 | -25%
CCOc1ccccc1NC(=O)C1CCN(S(=O)(=O)c2cccc3cccnc23)CC1 | 3%
CC1CCCC(C)N1C(=O)COc1ccc(-c2nnco2)cc1 (centres undefined) | 4%
CCOc1ccc(C(=O)c2cccs2)cc1 | 0%
CCn1c(SCC(=O)Nc2ccc3c(c2)OCCO3)nnc1-c1ccco1 | 9%
Cc1ccc(SCCCn2cncn2)cc1 | -1%
O=C(CSc1nnc(-c2ccc(O)cc2)n1Cc1ccco1)c1cccs1 | u
CCn1cc(C(=O)NC2CCCCCC2)c(=O)c2cc(S(=O)(=O)N3CCCCC3)ccc21 | -5%
